# Source: PubChem
# S aureus helic = blocks Staphylococcus aureus DNA helicase; 120,000 compounds, 0.05% hits; inhibition, %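 (tested at about 80 µM)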; AID 485395; purified S. aureus helicase, fluorescence unwinding assay; about half of the hits fall short of the stated cut;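 active = both duplicates at 50% or more, or one of them with a favoured structure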;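 also: 0% = mean of negative control wells and 100% = mean of positive control wells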
# MgrA-DNA mod = S. aureus MgrA-DNA binding modulation. inhibition, %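 (about 10 µg/mL by stock and volumes)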. 84,000 compounds, 0.13% hits. fluorescence polarization;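 active = above 50% in either of two replicates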;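 also: 0% = protein plus DNA without compound and 100% = DNA alone without protein; higher means less MgrA bound to DNA so lower polarization; one replicate is shown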
# The depositor's hits bear a star; . = not tested or not shown.
cpd	compound	S aureus helic	MgrA-DNA mod
1	CC1Cn2c(nnc2-c2cc3ccccc3cc2O)S1 (configuration not stated)	3	0.0
2	O=C(CNc1ccccc1C(=O)NCc1ccco1)Nc1ccccc1Cl	22	.
3	CCc1ccccc1S(=O)(=O)Cc1ccc(C(=O)NC(C)C)o1	15	.
4	Cc1ccc(N2CCN(c3ccc(C)cc3)C2c2ccncc2)cc1	14	-0.4
5	O=C(Cc1cc2ccccc2[nH]1)NC(C(=O)Nc1ccc2c(c1)OCO2)c1ccccc1 (configuration not stated)	9	.
6	O=S1(=O)CCC(NS(=O)(=O)c2ccc(Cl)cc2)C1 (configuration not stated)	.	-0.4
7	CCOC(=O)c1cnn(C(C)(C)C)c1C1CCN(C(=O)OC(C)(C)C)CC1	-1	.
8	Cc1ccc(NC(=O)NCCCN2CCOCC2)cc1	6	8.0
9	Cc1ccc(C(=O)CSc2nccn2-c2ccccc2)cc1	.	0.0
10	CCN1CC2=C(OC(N)=C(C#N)C2c2cccs2)/C(=C\c2cccs2)C1 (configuration not stated)	-2	.
11	Cn1cnc2c(NCc3ccccc3)nc(NCCO)nc21	.	1.1
12	Cc1ccccc1-n1ncc(C(=O)O)c1C	.	-3.2
13	C=CCn1c(C)cc(-c2csc(CC#N)n2)c1C	9	.
14	O=C(Oc1cccc2cccnc12)c1cccc(Cl)c1	17	.
15	c1coc(CSCc2cn3cccnc3n2)c1	1	-1.1
16	O=C(Nc1ccc(CCC(=O)N2CCCC2)cc1)c1cc2ccccc2o1	19	-1.6
17	c1cncc(-c2nc(NCC3CCCO3)c3ccccc3n2)c1 (configuration not stated)	-11	.
18	COc1cc2nc(CN3CCCC3c3cccs3)[nH]c(=O)c2cc1OC (configuration not stated)	9	.
19	O=C(CN1CCC(n2nnc3ccccc32)CC1)Nc1cccc(F)c1	4	14
20	CC(C)c1ccc(NC(=O)C2CCC(CNS(=O)(=O)c3cccc4cccnc34)CC2)cc1 (configuration not stated)	8	0.9
21	CC(C)(C)C(=O)/C=C1\SCC(=O)N1CC(=O)Nc1ccccc1C#N	-35	.
22	CC(C)N1CC(COc2ccccc2Cl)OC1=O (configuration not stated)	.	-0.3
23	COc1ccc(C2CC(C(F)(F)F)n3nc(C(=O)NCCc4ccccc4)c(Cl)c3N2)cc1OC (configuration not stated)	.	-1.4
24	COc1cccc(C2Nc3ccccc3C(=O)N2NS(=O)(=O)c2ccc(C)cc2)c1O (configuration not stated)	-18	.
25	COc1ccc(NC(=O)COC(=O)C2CC(=O)N(Cc3ccc(C)cc3)C2)cc1 (configuration not stated)	15	4.2
26	COc1cc(/C=N/OCC(=O)N2CCN(C(C)=O)CC2)ccc1OC(F)F	-17	.
27	Cc1cccc(-n2ncc3c(N(CC(C)C)CC(C)C)ncnc32)c1	4	-1.0
28	CCNC(=O)C1CCN(S(=O)(=O)c2ccc(C)cc2)CC1	5	-5.8
29	COC(=O)c1csc2c(C(F)(F)F)cc(N3CCN(S(=O)(=O)c4ccc(C)cc4)CC3)nc12	.	2.2
30	CCCCc1ccc(NC(=O)/C=N/O)cc1	9	.

# Shown with the structure last: four of the compounds above
no.	S aureus helic	MgrA-DNA mod	molecule
21	-35	.	CC(C)(C)C(=O)/C=C1\SCC(=O)N1CC(=O)Nc1ccccc1C#N
29	.	2.2	COC(=O)c1csc2c(C(F)(F)F)cc(N3CCN(S(=O)(=O)c4ccc(C)cc4)CC3)nc12
26	-17	.	COc1cc(/C=N/OCC(=O)N2CCN(C(C)=O)CC2)ccc1OC(F)F
30	9	.	CCCCc1ccc(NC(=O)/C=N/O)cc1

# Next part.
cpd	compound	S aureus helic	MgrA-DNA mod
31	CC(C)C1Oc2ccccc2N(CC(=O)N(C)C2CCCCC2)C1=O (configuration not stated)	6	-29
32	O=C(Cc1cn2ccsc2n1)OCc1ccccc1	2	-1.4
33	Cc1nn(C(=O)c2c[nH]c3ccccc23)c(N)c1-c1ccccc1	9	-0.6
34	Cn1cccc1CC(=O)N/N=C1/CCCc2ccccc21	-7	.
35	COC(=O)COc1cccc(NC(=O)Cc2cccs2)c1	6	0.0
36	Cc1nnc2c3ccccc3c(-c3cccs3)nn12	10	-2.6
37	CCc1nc(SCc2ccccc2)[nH]c(=O)c1C	-2	1.8
38	CCOC(=O)C1CCC(CNC(=O)N2CC(CC)Oc3ccccc32)CC1 (configuration not stated)	29	.
39	NC(=O)CSc1ccc(-c2cccs2)nn1	0	3.8
40	CCC(C)NC(=O)c1c(N)n(/N=C/c2ccc(OC)c(OC)c2)c2nc3ccccc3nc12 (configuration not stated)	0	.
41	CCSc1nc(NC(C)C)nc(N2CCOCC2)n1	-29	2.1
42	N#Cc1nc(-c2ccccc2)oc1NCCN1CCCCC1	3	-0.3
43	CCOc1cc(/C=C2\SC(=S)N(CC)C2=O)cc(Cl)c1O	-79	8.2
44	COc1ccc(NC(=O)NCc2ccccc2)cc1	-19	.
45	COC(=O)c1cn(C(=O)CCc2ccccc2)c2ccccc12	0	1.9
46	CSc1nc2cc(C)nn2c(-c2ccco2)c1C#N	.	-1.8
47	COC(=O)c1sccc1S(=O)(=O)Nc1ccc2c(c1)OCCO2	.	-1.7
48	CN(C)/C=N/c1nnc(SCC(=O)Nc2cc(Cl)cc(Cl)c2)s1	.	1.2
49	c1ccc(Nc2c(-c3ccccc3)nc3nc[nH]n23)cc1	8	.
50	COc1ccc(-c2c(C#N)c(N)nc(SCC(=O)OCc3ccccc3)c2C#N)cc1	.	-0.5
51	COc1ccc(C(=O)COc2ncnc3cc(Cl)ccc23)cc1	-7	.
52	CCOC(=O)c1cnc2ccc(C(=O)OC)cc2c1NCc1ccco1	5	.
53	CCCC(=O)N1CCCC(c2nc3c(nnn3Cc3ccccc3)c(=O)[nH]2)C1 (configuration not stated)	2	2.8
54	O=C(O)CSc1nnc(-c2ccco2)n1Cc1ccccc1	18	.
55	O=C(NCc1ccc2c(c1)OCO2)c1ccc2c(=O)n(CCC3=CCCCC3)c(=O)[nH]c2c1	4	.
56	NC(=O)COC(=O)/C=C/c1ccc2ccccc2n1	-5	.
57	CCN1C(=O)C(C(=O)c2ccc(OC)cc2)SC1=S (configuration not stated)	-6	.
58	CCCC(=O)Nc1nnc(-c2ccccc2F)s1	5	-2.2
59	CCOc1nc(Nc2ccccc2)nc(OCC)n1	-2	1.8
60	CN(C)c1ccc(P(=O)(OCc2ccccc2)C(O)c2ccccc2)cc1 (configuration not stated)	-18	.

# Arranged by value in MgrA-DNA mod (descending): 3 from the list above
cpd	compound	S aureus helic	MgrA-DNA mod
53	CCCC(=O)N1CCCC(c2nc3c(nnn3Cc3ccccc3)c(=O)[nH]2)C1 (configuration not stated)	2	2.8
59	CCOc1nc(Nc2ccccc2)nc(OCC)n1	-2	1.8
58	CCCC(=O)Nc1nnc(-c2ccccc2F)s1	5	-2.2

# Later entries.
cpd	compound	S aureus helic	MgrA-DNA mod
61	O=S(=O)(Nc1ccc(-c2nnc3n2CCCCC3)cc1)c1ccc(Br)cc1	8	.
62	Cc1c(C(=O)NCc2ccco2)cc(-c2ccccc2)n1CCCN1CCOCC1	.	-1.8
63	Cc1ccc(NC(=O)Cc2cc(F)cc(F)c2)cc1[N+](=O)[O-]	.	0.3
64	COc1ccc(NC(Cc2ccccc2)c2ccco2)cc1 (configuration not stated)	-33	.
65	CC(C)(C)S(=O)(=O)/C(C#N)=C/c1cc2ccccc2o1	.	-0.5
66	CCCCNc1nc2ccccc2n1CC(=O)N1CCc2ccccc21	0	.
67	O=C(/C=C/c1cccs1)OCC(=O)c1ccccc1	-5	.
68	COCCn1c(C)c(C(=O)O)sc1=S	-3	.
69	O=C(OCc1ccccc1)C(O)c1ccccc1 (configuration not stated)	.	-1.1
70	COc1cc(C=C2C(=O)N(C)C(=O)N(C)C2=O)ccc1Oc1ccc([N+](=O)[O-])cn1	.	6.8
71	COc1ccc(-c2ccc(N)[n+](CCCC(=O)O)n2)cc1	.	-2.0
72	CC(C)(C)c1ccn(CC(=O)c2ccc(Cl)cc2)n1	.	0.4
73	O=C(NCC1CCCO1)c1cc(=O)[nH]c2ccc(Br)cc12 (configuration not stated)	10	0.7
74	O=C(Nc1cccnc1Sc1nc2cccnc2s1)c1ccc(F)cc1	.	-1.4
75	CCOc1ccc(-c2csc3ncn(CC(N)=O)c(=O)c23)cc1	10	-0.8
76	O=C(O)c1cccc(NC(=O)c2ccccc2C(=O)O)c1	.	-3.5
77	CN(C)c1ccc(C2Nc3sc4c(c3C(=O)N2C)CCCC4)cc1 (configuration not stated)	0	1.4
78	Cn1cnc(S(=O)(=O)Nc2cccc(Cl)c2)c1	10	-0.5
79	CS(=O)(=O)c1ncc2c(n1)c(=O)c(C#N)c1[nH]c3ccccc3c(=O)n12	-7	.
80	CC1CCCC(N2CC(C(=O)O)CC2=O)C1C (configuration not stated)	-7	.
81	CCC(=O)NC1CC(=O)N(c2cccc(OC)c2)C1 (configuration not stated)	-7	.
82	COc1ccc(OCC2CN=C(Nc3ccc(C)cc3)S2)cc1 (configuration not stated)	.	0.0
83	Cn1c(CSc2nc(N)cc(N)n2)n[nH]c1=S	1	.
84	COC(C(=O)NCc1cccnc1)c1ccccc1 (configuration not stated)	0	-1.8
85	CCN(CC)C/C=C/c1c(F)c(F)c(OC)c(F)c1F	10	0.5
86	O=C(Nc1ccccc1)N1CC=C(c2ccc(F)cc2)CC1	7	5.8
87	Cc1nn(CC(=O)NC(C)(C)C)c(=O)c2ccccc12	11	-2.4
88	CC(C(=O)Nc1ccc(F)cc1)C1SC(=O)NC1=O (configuration not stated)	-4	.
89	O=C(O)C1CCCN1C(=O)OCc1ccccc1 (configuration not stated)	0	-3.1
90	Cc1noc(C)c1C(=O)OCC(=O)Nc1cc(C(F)(F)F)ccc1N1CCOCC1	6	.
91	O=C(Nc1scc(-c2cccs2)c1C(=O)O)c1ccc(F)cc1	10	-2.2
92	CC1CCN(c2nc3c(c(=O)[nH]2)CCN(Cc2ccccc2)C3)CC1	20	.
93	CCn1cnc2sc3c(c2c1=O)CCCC3	-16	0.8
94	CCCc1cc(C(=O)NC2CCCC2)no1	2	.
95	COC(=O)c1cc(C)cc(=O)o1	.	-2.2
96	CCOC(=O)CCc1c(C)nc2c(c(C)nn2C(C)(C)C)c1C	-14	0.0
97	O=C(O)C1OCOc2ccccc21 (configuration not stated)	-6	-7.0
98	O=C(Cc1cccs1)N1c2ccccc2Sc2ccccc21	5	1.2
99	Cc1ccc2nc(NC(=O)C(NS(=O)(=O)c3cccc4nsnc34)C(C)C)sc2c1 (configuration not stated)	16	.
100	O=C(OCn1nnc2ccccc2c1=O)c1cccnc1	9	0.8
101	CCNC(=O)CCOc1cccc(C)c1	-10	.
102	Cc1cc(NC(=O)CCOc2ccc(F)cc2)no1	.	-0.8
103	S=C(CC(=S)N1CCOCC1)N1CCOCC1	-1	15
104	CSc1cccc(NC(=S)N(CCN2CCCCC2)Cc2ccco2)c1	13	-0.9
105	CC(=O)Oc1ccccc1C(=O)NCCC(C)C	0	1.2
106	OCC1CCCN(c2ncc(C(F)(F)F)cc2Cl)C1 (configuration not stated)	4	.
107	Cc1ccc(N2CC(=O)Nc3c(sc4nc(C)cc(C)c34)C2=O)cc1	.	2.4
108	CCOc1ccc(CC2SC(N)=NC2=O)cc1 (configuration not stated)	4	.
109	O=C(CSc1nc(-c2cccs2)cc(C(F)(F)F)n1)N1CCSCC1	3	1.5
110	Cc1cc(C(=O)Nc2ccc(Cl)cc2)no1	12	.

# Next section; the last 5 above are carried over.
cpd	compound	S aureus helic	MgrA-DNA mod
106	OCC1CCCN(c2ncc(C(F)(F)F)cc2Cl)C1 (configuration not stated)	4	.
107	Cc1ccc(N2CC(=O)Nc3c(sc4nc(C)cc(C)c34)C2=O)cc1	.	2.4
108	CCOc1ccc(CC2SC(N)=NC2=O)cc1 (configuration not stated)	4	.
109	O=C(CSc1nc(-c2cccs2)cc(C(F)(F)F)n1)N1CCSCC1	3	1.5
110	Cc1cc(C(=O)Nc2ccc(Cl)cc2)no1	12	.
111	c1ccc(-c2oc3ncn4ncnc4c3c2-c2ccccc2)cc1	3	3.1
112	Cc1c(C)c(O)c(Cc2nc3ccccc3[nH]2)c(C)c1O	17	.
113	Cc1ccc(N(C(=O)c2ccccn2)C2(C(=O)Nc3c(C)cccc3C)CCCCC2)cc1	10	-2.5
114	C=CCN1C=C/C(=C\C=C(C#N)C#N)c2ccccc21	8	0.8
115	C=CCn1c2ccccc2c2nnc(SCC(=O)Nc3ncc([N+](=O)[O-])s3)nc21	.	0.5
116	O=C1CN(CC(=O)NC(=O)NCc2ccccc2)CCN1	-2	.
117	Cc1cccc(C)c1NC(=O)CNC(=O)C(C)Oc1ccccc1C#N (configuration not stated)	-2	.
118	COc1ccc(C(C)C)cc1S(=O)(=O)N1CCCCC1C (configuration not stated)	16	-0.6
119	CCC(C(=O)N1CCCCC1C)c1ccccc1 (configuration not stated)	5	2.4
120	O=C(O)c1ccccc1C(=O)N(Cc1ccccn1)Cc1ccccn1	.	-0.1
121	C#CCSc1nc(-c2cccs2)cc(C(F)(F)F)c1C#N	-12	.
122	O=C1C(=O)N(CCCN2CCOCC2)C(c2cccs2)/C1=C(\O)c1ccccc1 (configuration not stated)	14	2.0
123	CCN1C(=O)/C(=C2\SC(=O)N(Cc3ccccc3)C2=O)c2ccccc21	27	.
124	CC(N)c1nc2ccccc2[nH]1 (configuration not stated)	-19	-1.6
125	CCOC(=O)Cn1nc(-c2ccc(Cl)cc2)ccc1=O	6	-0.2
126	CN(Cc1ccccc1)C(=S)Nc1ccc2nc3n(c(=O)c2c1)CCCCC3	30	.
127	COc1ccc(/C=C(\NC(C)=O)C(=O)O)c(Cl)c1OC	.	-1.4
128	COC(=O)c1c(N=CN(C)C)c(C#N)c2n1CCCC2	.	1.5
129	COc1ccccc1Cc1nnc(C(=O)NCCc2ccccc2)o1	7	-2.1
130	Cc1sc2ncnc(OCC(=O)N3CC(C)CC(C)C3)c2c1C (configuration not stated)	29	.

# Some of the compounds tested; rates above refer to the full screens.
